Vaccinia Venus: qHTS for Stage-Specific Inhibitors of Vaccinia Orthopoxvirus: Venus Reporter Primary qHTS | Vaccinia virus Venus reporter expression, fluorescence | 0.46% of 330,000 active | Potency, µM (top dose mostly 36.5 µM), for the others: at the highest dose activity change, negative = inhibition, hits mostly inhibitors | AID 720580, 2013; active means well fitted inhibition curve with a large enough effect; inconclusive means small, poorly fitted or top-dose-only effect; inactive means no such curve, though single readings can be large or run the other way; tested in A549 cells; note: nearly all actives have a fitted effect of over 30% in size; inactives centre near -10
Vaccinia mCherry: qHTS for Stage-Specific Inhibitors of Vaccinia Orthopoxvirus: mCherry Reporter Primary qHTS. Vaccinia virus mCherry reporter infection, fluorescence; about a quarter of the inactives have no number. 0.63% of 310,000 active. Potency, µM (series often up to 36.5 µM), for the others: at the highest dose activity change, negative = inhibition, actives largely listed as inhibitors; active = well fitted inhibition curve with a large enough effect; inconclusive = small, poorly fitted or top-dose-only effect; inactive = no such curve, though single readings can be large or run the other way; tested in A549 cells; note: nearly all actives have a fitted effect of over 35% in size; inactives centre near -10
Starred values were filed as active, the others as inactive; i = inactive; ? = inconclusive; · = not tested or not shown; & = joins results of further samples; [ ] = remark or other dose. % is set by controls: 0 for no effect and ±100 for the full control effect; potency is the fitted concentration of half-maximal effect. Random draw from the library. Share with any hit: about 0.87%.

SMILES	Vaccinia Venus	Vaccinia mCherry
COc1cc(C(=O)NNC(=O)C2CC=CCC2C(=O)O)cc(OC)c1OC (configuration not stated)	?	?
Cc1ccc(Cn2c(C)c3cnn(CC(=O)NCCc4ccc(Cl)cc4)c(=O)c3c2C)cc1	-21%	-16%
Cc1cccn2c(=O)c3cc(C(=O)NCc4ccccc4)c(=N)n(CCOCCO)c3nc12	9%	15%
Cc1ccc(CN2CCN(Cc3cnn(-c4ccc(Cl)cc4)c3)CC2CCO)o1 (configuration not stated)	-11%	i
CC1=C(C(=O)Nc2ccccc2Cl)C(c2ccc(N(C)C)cc2)NC(=O)N1 (configuration not stated)	4%	·
COc1cccc(COCC(O)CN2CCC(C(N)=O)CC2)c1 (configuration not stated)	-1%	-10%
CCSc1ncc(Cl)c(C(=O)Nc2ccc(S(=O)(=O)Nc3nccc(C)n3)cc2)n1	-5%	-16%
COc1ccc(Cl)cc1C(=O)Nc1cccc(-c2ccc3nncn3n2)c1	-13%	-11%
Cc1ccc(-c2nnc(SCC(=O)Nc3ccccc3N3CCOCC3)o2)cc1	-3%	-13%
COc1ccc(C2C(C(=O)Nc3cc(OC)c(OC)c(OC)c3)c3ccccc3C(=O)N2C)cc1OC (configuration not stated)	-17%	-3%

Part of the list above, with two lines to a compound.
Value order – Vaccinia Venus	Vaccinia mCherry
- Cc1ccc(-c2nnc(SCC(=O)Nc3ccccc3N3CCOCC3)o2)cc1
 : -3%	-13%
- Cc1ccc(Cn2c(C)c3cnn(CC(=O)NCCc4ccc(Cl)cc4)c(=O)c3c2C)cc1
 : -21%	-16%
- Cc1ccc(CN2CCN(Cc3cnn(-c4ccc(Cl)cc4)c3)CC2CCO)o1 (configuration not stated)
 : -11%	i

(listing goes on)
SMILES	Vaccinia Venus	Vaccinia mCherry
Cn1cnnc1SCC(=O)Nc1ccc(OCc2ccccc2)cc1	6%	-6%
O=S(=O)(c1cccc(C(F)(F)F)c1)N1CCC(Oc2ccc(-n3cnnn3)cc2)CC1	?	-28%
COc1cccc(C(=O)N2CCOCC2)c1	-7%	-3%
Cc1cccc(C(=O)NC(=S)NNC(=O)c2cccs2)c1	-28%	?
CC(C)CC(=O)Nc1ccc2nn(-c3ccccc3)nc2c1	-19%	-1%
O=C(C(=O)N1CCOCC1)c1c[nH]c2ccccc12	-14%	-1%
CC(=O)Nc1ccc(NC(=O)C2CCN(S(C)(=O)=O)CC2)cc1	-2%	-15%
COc1ccc(S(=O)(=O)N(C)C[C@H]2Oc3c(NC(=O)C4CCCCC4)cccc3C(=O)N([C@H](C)CO)C[C@@H]2C)cc1	-27%	-9%
CC1CCCC(C)N1C(=O)CN1CCN(c2nc(-c3ccc(F)cc3)cs2)CC1 (configuration not stated)	?	-24%
Cc1cccc(NC(=O)c2sc3nc(N4CCOCC4)c4c(c3c2N)CC(C)(C)OC4)c1	?	?
Cc1ccccc1NC(=O)c1ccccc1NC(=O)c1ccccc1F	-13%&2%	-9%&-5%
COC(=O)c1cc(Cl)c(NC(=O)c2ccc(F)cc2)cc1OC	-4%	-7%
Cc1ccc2sc(NC(=O)CN3C(=O)CCC3=O)nc2c1C	-15%	?
Cc1ccc(OCc2nc3ccccc3n2CC(C)C)cc1	-2%	-17%
Cc1ccc([N+](=O)[O-])cc1NC(=O)c1cccnc1	-3%	i
O=C(CN1C(=O)CSc2ncccc21)NCCN1CCOCC1	-2%	13%
Cc1n[nH]c(C)c1S(=O)(=O)N1CCc2ccccc21	-14%	-1%
COc1cc(NC(=O)c2ccc(OC)c([N+](=O)[O-])c2)ccc1NC(=O)c1cccs1	-13%	i
Cn1cnnc1Sc1nc2c(c(=O)n(C)c(=O)n2C)n1C	-13%	i
COc1ccc(N2CCN(C(=O)c3ccc(CS(=O)(=O)c4ccccc4C)o3)CC2)cc1	2%	-12%
CCCc1cc(Nc2ccccc2OCC)n2ncnc2n1	2%	-6%
COc1ccc(C(=O)Nc2ccccc2C(=O)NCc2cccnc2)cc1OC	-10%	-1%
COc1ccc(NC(=O)C2(C)CCN2CC2CCCCC2)cc1OC (configuration not stated)	-8%	i
CCc1nnc(NC(=O)Nc2ccc(Cl)cc2)s1	-7%	-4%
Cc1oc(-c2nc3ccccc3n2C)cc1C(=O)c1ccccc1	-4%	-3%
CCOC(=O)c1cc(C#N)c(Oc2ccc(F)cc2)nc1-c1ccccc1	-17%	·
CCN(C(=O)CSc1ncnc2c1cnn2-c1ccccc1)C1CCS(=O)(=O)C1 (configuration not stated)	-9%	i
O=C(c1cc(-c2ccccc2Cl)nc2ccccc12)N1CCN(c2ccccc2O)CC1	?	?
O=c1cc(O)c2sc3nc(-c4ccccc4)cc(C(F)(F)F)c3c2[nH]1	-8%	i
C#CCn1ccc(O)c(Cc2ccccc2)c1=O	1%	-10%
Cc1ccc2oc(=O)c3cc(C(=O)N(Cc4ccccc4)C(C)C)sc3c2c1	2%	-12%
O=C(CSc1nc2ccccc2o1)Nc1nc(-c2ccccc2)cs1	-21%	-12%
Cc1ccc(P(C)(=O)c2ccc(C)cc2)cc1	-2%	-7%
O=C(CN1CCN(C(=O)c2cc(C3CC3)nn2-c2ccccc2)CC1)Nc1ccc(F)cc1	-17%	i
O=C1NC2=C(C(=O)CCC2)C(c2ccccc2)N1 (configuration not stated)	2%	-13%
COc1ccc(NC(=O)c2ccc(-n3cncn3)c([N+](=O)[O-])c2)cc1OC	-11%	i
CCC(=O)N1CCc2cc(S(=O)(=O)Nc3cc(C)ccc3OC)ccc21	-7%	-16%
COc1ccc(CN2CCc3ccc(NC(=O)c4ccncc4)cc3C2)c(F)c1	-19%	0%
N#Cc1ccc(-c2cccs2)nc1SCc1ccc(Br)cc1	9%	-6%
CC(CCc1ccccc1)NC(=O)C1CCN(c2nnc(-n3cccc3)s2)CC1 (configuration not stated)	-14%	7%
CN(C)c1cc(=O)n2c(n1)SCCC2	-6%	·
O=C(C1CCC1)N1CCN(c2ccc(C(F)(F)F)cc2[N+](=O)[O-])CC1	-3%	i
COc1ccccc1C(=O)NCC(c1ccc(N(C)C)cc1)N1CCc2ccccc21 (configuration not stated)	-5%	-7%
Cc1cc(F)ccc1C(O)c1ncc(-c2ccccc2C(F)(F)F)[nH]1 (configuration not stated)	-5%	-3%
CC(C)NC(=O)c1onc(CSc2ccc(F)cc2)c1C(=O)O	-4%	-4%
COc1ccccc1NC(=O)C1CCCN(c2cc(C)nc3ncnn23)C1 (configuration not stated)	-2%	·
CC12CCC(=O)N1C(C(=O)Nc1nc(-c3ccc(F)cc3)cs1)CS2 (configuration not stated)	-9%	i
O=C(N[C@@H]1c2ccccc2C2(CCN(C(=O)c3ccc4c(c3)OCCO4)CC2)[C@H]1O)c1cccnc1	6%	-2%
CCc1ccc(CSc2nc(-c3ccccc3OC)nc3c2Cc2c(CO)cnc(C)c2O3)cc1	?	?
CCCC/C=C/C(NC(=O)c1ccc(-c2ccccc2)cc1)c1ccccc1 (configuration not stated)	-2%	i

More records follow:
SMILES	Vaccinia Venus	Vaccinia mCherry
CCNC(=S)N(CCc1ccccc1C)Cc1cc2cc(OC)c(OC)cc2[nH]c1=O	-15%	-15%
O=C(CN1CCSc2ccccc21)NCCCc1ccccc1	-18%	-7%
Cn1c(=O)c2cc(NC(=O)Cc3ccccc3F)ccc2n1Cc1ccc(Cl)cc1	-8%	10%
Clc1ccc(-c2nnn3c2nc(N2CCCCC2)c2ccccc23)cc1	3%	6%
CSc1cccc(NC(=S)N(Cc2ccccc2)Cc2ccccn2)c1	-11%	-19%
CC1(C(=O)N2CCN(c3ccccc3)CC2)CC1(Cl)Cl (configuration not stated)	-6%	i
O=C(CCC(=O)Nc1ccccc1Cl)NNC(=O)c1ccco1	-12%	-13%
CC(C)OC(=O)C1C(=O)CC(C)(O)C(C(=O)OC(C)C)C1c1ccc([N+](=O)[O-])cc1 (configuration not stated)	-16%	-24%
O=C(Nc1cccc(F)c1)Nc1ccc2c(c1)OCO2	-10%	-2%
COc1cc(C)nc(N2CCC(C(=O)NC3CCCCC3)CC2)n1	-7%	-17%
O=Nc1c(-c2c(O)[nH]c3cc(Br)ccc23)[nH]c2ccccc12	-8%	?
COC(=O)c1ccc(=O)n(Cc2ccc3c(c2)OCO3)c1	-8%	·
O=C(Nc1cnc2ccccc2c1)N1CCOCC1	-8%	-7%
COc1ccccc1NS(=O)(=O)c1cc(Cl)ccc1OC	-19%	-30%
Cc1c(C(=O)Oc2cccc3cccnc23)cccc1[N+](=O)[O-]	-2%	-7%
CCOC(=O)N1CCN(C(=O)C2CCN(S(=O)(=O)c3ccc(Br)s3)CC2)CC1	-6%	·
Cc1ccc(C)c(N2CCN(S(=O)(=O)c3ccc(-c4cnc(C5CC5)o4)cc3)CC2)c1	-17%	-24%
CCOC(=O)CSc1nn(C)c(=S)s1	3%	i
COn1c(SCc2cccnc2)nc2ccccc2c1=O	-8%	-14%
CCOc1ccc(S(=O)(=O)Nc2ccncc2)c(C)c1C	-9%	-12%
Cc1cccc(-c2cc(C(=O)N3CCCc4ccccc43)c3ccccc3n2)c1	?	?
Cc1c(C(=O)Nc2ccc(C(=O)Nc3ccccc3)cc2)cccc1[N+](=O)[O-]	4%	-7%
O=c1c2ccccc2sn1-c1cc(S(=O)(=O)N2CCOCC2)ccc1N1CCCCC1	-15%	-11%
O=S(=O)(c1ccc(Cl)cc1)c1nc(-c2ccco2)oc1SCc1ccc(F)cc1	-19%	-19%
CN(C)c1ccc(CN(CC2CCCO2)C(=O)COc2ccc(Cl)cc2)cc1 (configuration not stated)	-12%	-10%
Nc1[nH]c(C(=O)c2ccccc2)c(-c2ccc(Br)cc2)c1C(=O)NC1CC1	4%	12%
c1ccc(COc2ccc(Nc3ncnc4nc[nH]c34)cc2)cc1	-30%	7.1µM*
Cc1ccsc1/C=N/n1c(-c2cc(-c3ccccc3)n[nH]2)n[nH]c1=S	-16%	-15%
CN(Cc1ccc(Cl)cc1)C(C(=O)NC1CCCCC1)c1cc2ccccc2o1 (configuration not stated)	-8%	i
COCCN1C(=O)CCC1(C)C(=O)Nc1ccc2ccccc2c1 (configuration not stated)	-5%	7%

Quoted at random: 3 entries already listed
SMILES	Vaccinia Venus	Vaccinia mCherry
CCc1nnc(NC(=O)Nc2ccc(Cl)cc2)s1	-7%	-4%
O=C(Nc1cccc(F)c1)Nc1ccc2c(c1)OCO2	-10%	-2%
COc1ccc(S(=O)(=O)N(C)C[C@H]2Oc3c(NC(=O)C4CCCCC4)cccc3C(=O)N([C@H](C)CO)C[C@@H]2C)cc1	-27%	-9%

(listing goes on)
SMILES	Vaccinia Venus	Vaccinia mCherry
CC(=O)[C@@]1(O)C(C)CC2C3C=C(C)C4=Cc5c(cnn5-c5ccccc5)C[C@]4(C)C3C(O)C[C@@]21C (some centres not stated)	?	-25%
Cc1ccc(Cl)cc1N1CCN(S(=O)(=O)N2CCCCC2)CC1	-11%	?
CCc1ccc(-n2nc(C)c3c(C)cc(=O)n(CC(=O)NCc4ccc(C)cc4)c32)cc1	9%	-14%
COc1ccc(C)cc1NC(=O)c1ccc(CN2CCc3ccccc3C2)cc1	-6%	-3%
COc1ccccc1NC(=O)/C(=N/OCc1ccc(C#N)cc1)C(C)=O	-2%	-7%
COC(=O)c1ccc(-c2ccc(OC)c([C@H]3[C@H]4C=CC[C@@H](C)[C@@H]4C(=O)N3Cc3ccccc3)c2)cc1	?	?
CCCc1cc(=O)oc2c(C)c(OCC(=O)NCCCn3ccnc3)ccc12	-11%	-15%
CCN(CC)C(=O)c1[nH]cnc1C(=O)NCc1ccc(CNC(=O)OC(C)(C)C)cc1	-7%	i
CCN1CCN(C(c2cc(OC)ccc2OC)c2nnnn2Cc2ccccc2)CC1 (configuration not stated)	-6%	·
O=C(COC(=O)CC1CC2CCC1C2)NCc1ccccc1 (configuration not stated)	-6%	-15%
Cc1cc(C)n2nc(SCC(=O)Nc3cc(Cl)ccc3C)nc2n1	5%	7%
O=S(=O)(c1cccc2cccnc12)N1CCc2ccccc21	-25%	·
O=C(NCCOC(=O)c1ccc(C(=O)OCCNC(=O)c2ccccc2)o1)c1ccccc1	-8%	·
CCN(c1ccccc1)S(=O)(=O)c1nnc(NC(=O)c2ccccc2OC)s1	-9%&-2%	-16%&2%
CC(=O)Nc1ccc(/C=N/Nc2nncc3ccccc23)cc1	?	-27%
CC(C)CC1C(=O)N2CCC[C@H]2[C@]2(O)O[C@](NC(=O)[C@@H]3C=C4c5cccc6[nH]c(Br)c(c56)C[C@H]4N(C)C3)(C(C)C)C(=O)N12 (some centres not stated)	?	?
CC(=O)C[n+]1cccc(Br)c1	-9%	43%[activator]
CCN(CC)c1ccc(/C=C2\CCC(/C=N/NC(=O)c3ccc(=O)n(C)c3)=C2N2CCOCC2)cc1	46%[activator]	-18%
N#C/C(=C\c1ccc(O)c(O)c1)C(=O)NCCCc1ccccc1	-5%	i
CCCOc1ccc(C(=O)NCC2OCCc3ccccc32)cc1OC (configuration not stated)	-3%	0%
COC(=O)N(c1ccc(OC)cc1)P1(=S)OCCC(C)O1 (configuration not stated)	-5%	·
CC(OC(=O)c1ccccc1NCCO)C(=O)NC1CCCCC1C (configuration not stated)	-9%	2%
O=C(CSc1nnc(-c2ccccc2)o1)c1cccc([N+](=O)[O-])c1	-14%	-20%
COc1ccc(/C(O)=C2/C(=O)C(=O)N(Cc3cccnc3)C2c2ccncc2)cc1F (configuration not stated)	3%	-16%
CN(C)c1nc(N(C)C)n(C(=O)c2ccc(F)cc2)n1	-4%	i
Cc1ccc(S(=O)(=O)N(C)C)cc1NC(=O)c1cncc(Br)c1	8.9µM*	6.3µM*

Assay outcomes as filed in PubChem BioAssay.
